Screening results as filed in PubChem BioAssay.
GIRK2 activ: activators of human GIRK2 potassium channels; AID 1259325, 2017; calls only for hits at 25 µM; 63,000 compounds, 0.05% hits; G protein-activated inward rectifier potassium channel 2 (Homo sapiens), P48051; HEK293-GIRK2 thallium flux, Thallos fluorescence;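 active means among the strongest 0.2% of first-round signals and kept after retests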;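 further: first round at about 10 µM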
Target sequence (P48051 whole entry, looked up): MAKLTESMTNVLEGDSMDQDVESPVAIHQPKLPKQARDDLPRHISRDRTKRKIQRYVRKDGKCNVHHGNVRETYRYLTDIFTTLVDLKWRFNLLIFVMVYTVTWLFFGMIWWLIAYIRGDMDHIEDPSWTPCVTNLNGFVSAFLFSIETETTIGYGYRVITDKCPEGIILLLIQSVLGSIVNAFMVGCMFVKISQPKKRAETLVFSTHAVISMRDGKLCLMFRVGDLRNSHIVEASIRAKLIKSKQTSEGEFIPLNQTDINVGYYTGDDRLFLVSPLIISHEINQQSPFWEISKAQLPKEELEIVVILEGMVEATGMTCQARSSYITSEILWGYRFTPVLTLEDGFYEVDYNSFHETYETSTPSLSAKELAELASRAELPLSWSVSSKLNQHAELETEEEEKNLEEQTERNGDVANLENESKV
Calls only; i = inactive.

SMILES	GIRK2 activ
Cn1cc(CC(=O)Nc2nc3c(s2)CN(S(=O)(=O)C2CC2)CC3)c2ccccc21	i
COc1cc(NC(=O)COc2nc(C)nc3ccccc23)cc(OC)c1OC	i
O=S(=O)(c1ccc2c(c1)OCCO2)N1CC(c2nc(-c3ccccc3)no2)C1	i
O=c1ccc(-c2cccc(Br)c2)nn1Cc1cccc([N+](=O)[O-])c1	i
Cn1c(=O)c2c(nc(N3CCCCCC3)n2CC(O)COc2ccccc2)n(C)c1=O (centres undefined)	i
CCOC(=O)N1CCN(Cc2cc(=O)oc3cc4c(cc23)CCC4)CC1	i
CCOC(=O)COc1ccc2c(c1)O/C(=C\c1cc(Cl)cc3c1OCOC3)C2=O	i
COc1ccc(-c2coc3c4c(ccc3c2=O)OCN(Cc2cccs2)C4)cc1OC	i
CCOc1ccccc1NC(=O)c1ccc(=O)n(Cc2ccccc2)n1	i
O=C(O)[C@H](O)c1ccccc1	i
Cc1ccc2nc(-c3ccc(NC(=O)c4coc(NC(=O)C5CC5)n4)cc3)sc2c1	i
Cc1cc(C)c(S(=O)(=O)NCCCC(=O)O)cc1N(C)S(=O)(=O)c1ccccc1	i
CCC[N+](C)(CCC)CC(O)COc1ccc2ccccc2c1 (centres undefined)	i
Cc1cc(C(=O)Nc2nc3c(s2)CN(C(=O)c2cn(C)nn2)CC3)no1	i
O=C(Nc1ccccc1Cl)c1csc2nc(-c3ccc(F)cc3)cn12	i
COc1nn(C)cc1C(=O)Nc1nc(-c2ccccn2)cs1	i
O=C(Nc1ccc(Cl)c(Cl)c1)N1CCC(Oc2cnccn2)CC1	i
COc1ccccc1NC(=O)NCc1ccc(C(=O)c2cccs2)s1	i
Cc1cc(F)ccc1NC(=O)Cn1cccc(S(=O)(=O)N2CCCCC2)c1=O	i
COc1ccc(Cl)cc1C(=O)Nc1ccc(OC)c(N2CCCC2=O)c1	i
O=C(Cc1cccs1)N1CCC(Cn2cnc3ccccc32)CC1	i
CC(C)(C)c1csc(CN2CCN(C(=O)c3cc4ccccc4oc3=O)CC2)n1	i
CCCNC(=O)C1CCC(Cn2c(=O)c3sccc3n(CC(=O)NC3CCCC3)c2=O)CC1 (centres undefined)	i
O=C(Cc1cccs1)N1CC(c2nc3ccccc3[nH]2)C1	i
Cc1nnc(CNC(=O)C2CN(C(=O)c3ccc(F)c(F)c3)C2)o1	i
CCN(CC)C(=O)Nc1ccc(OC)cc1	i
Cn1cnnc1SCCNC(=O)CN1CCN(c2cccc(Cl)c2)C1=O	i
Cc1ccccc1OCC(=O)N1CCC(CSCc2ccco2)CC1	i
COc1ncccc1C(=O)NCc1ccncc1	i
O=C(CCN1C(=O)c2ccccc2S1(=O)=O)N1CCN(C(c2ccccc2)c2ccccc2)CC1	i
Cc1ccc2c(CN3CCOCC3)cc(=O)oc2c1	i
C=CC(=O)c1ccc2ccccc2c1	i
CCCn1c(=O)c2c(nc3n(-c4cccc(OC)c4)c(C)cn23)n(C)c1=O	i
Cc1cn2c3c(=O)n(CCCO)c(=O)n(C)c3nc2n1C(C)c1ccccc1 (centres undefined)	i
O=C1/C(=C/c2ccc3c(c2)OCO3)Oc2cc(OC(=O)N3CCOCC3)ccc21	i
Cc1ccc(-c2csc3c(=O)[nH]c(N4CCCC(C(=O)NCc5ccccn5)C4)nc23)cc1 (centres undefined)	i

A second format for 21 compounds above:
compound | GIRK2 activ
CCC[N+](C)(CCC)CC(O)COc1ccc2ccccc2c1 (centres undefined) | i
Cc1cc(C(=O)Nc2nc3c(s2)CN(C(=O)c2cn(C)nn2)CC3)no1 | i
O=C(Nc1ccccc1Cl)c1csc2nc(-c3ccc(F)cc3)cn12 | i
COc1nn(C)cc1C(=O)Nc1nc(-c2ccccn2)cs1 | i
O=C(Nc1ccc(Cl)c(Cl)c1)N1CCC(Oc2cnccn2)CC1 | i
COc1ccccc1NC(=O)NCc1ccc(C(=O)c2cccs2)s1 | i
Cc1cc(F)ccc1NC(=O)Cn1cccc(S(=O)(=O)N2CCCCC2)c1=O | i
COc1ccc(Cl)cc1C(=O)Nc1ccc(OC)c(N2CCCC2=O)c1 | i
O=C(Cc1cccs1)N1CCC(Cn2cnc3ccccc32)CC1 | i
CC(C)(C)c1csc(CN2CCN(C(=O)c3cc4ccccc4oc3=O)CC2)n1 | i
CCCNC(=O)C1CCC(Cn2c(=O)c3sccc3n(CC(=O)NC3CCCC3)c2=O)CC1 (centres undefined) | i
O=C(Cc1cccs1)N1CC(c2nc3ccccc3[nH]2)C1 | i
Cc1nnc(CNC(=O)C2CN(C(=O)c3ccc(F)c(F)c3)C2)o1 | i
CCN(CC)C(=O)Nc1ccc(OC)cc1 | i
Cn1cnnc1SCCNC(=O)CN1CCN(c2cccc(Cl)c2)C1=O | i
Cc1ccccc1OCC(=O)N1CCC(CSCc2ccco2)CC1 | i
COc1ncccc1C(=O)NCc1ccncc1 | i
O=C(CCN1C(=O)c2ccccc2S1(=O)=O)N1CCN(C(c2ccccc2)c2ccccc2)CC1 | i
Cc1ccc2c(CN3CCOCC3)cc(=O)oc2c1 | i
C=CC(=O)c1ccc2ccccc2c1 | i
CCCn1c(=O)c2c(nc3n(-c4cccc(OC)c4)c(C)cn23)n(C)c1=O | i

Continued.
SMILES	GIRK2 activ
CCN(CC)CCCN1C(=O)c2oc3cc(C)c(C)cc3c(=O)c2C1c1ccccc1OC (centres undefined)	i
O=c1c(-c2ccc(Br)cc2)coc2cc(OCCN3CCN(CCO)CC3)ccc12	i
CC(=O)Nc1cccc(C2=NN(S(C)(=O)=O)C(c3cccs3)C2)c1 (centres undefined)	i
C=CCNC(=O)C1CCCN(c2nc3c(-c4cccc(OC)c4)csc3c(=O)[nH]2)C1 (centres undefined)	i
O=C(NCCC(O)c1ccccc1)Nc1ccc(Cl)c(Cl)c1 (centres undefined)	i
Cc1nc2sc(C(c3ccc(F)c(F)c3)N3CCCC3)c(O)n2n1 (centres undefined)	i
O=C(NCC1CCN(C(=O)Oc2ccccc2)CC1)C(=O)NCC(F)(F)F	i
CC1CCCN(c2nn(CC(=O)Nc3cccc(C(F)(F)F)c3)c(=O)c3ccccc23)C1 (centres undefined)	i
CN(C)CC1CSCCCN1C(=O)NC(C)(C)C (centres undefined)	i
CCOc1ccc(NC(=O)N2CC(c3nc(C4CC4)no3)C2)cc1	i
CN1C(=O)Cc2cc(N)ccc21	i
O=C1CN2Cc3c(ccc(Cl)c3Cl)N=C2N1	i
Cc1cccc(NC(=O)CSC2=NNC3C4CC(c5ccc(F)cc5)NN4C=CN23)c1C (centres undefined)	i
COCCNC(=O)c1ccc2c(=O)n(CCC(C)C)c(SCC(=O)c3ccc(OC)cc3)nc2c1	i
CC1CCN(c2nccnc2Oc2ccc(C(=O)NC3CCN(Cc4ccccc4)CC3)cc2)CC1	i
CCc1[nH]nc(S(=O)(=O)Nc2ccc(C(C)C)cc2)c1C(=O)OC	i
O=[N+]([O-])c1ccccc1S(=O)(=O)NCCOc1ccccc1	i
OCCN(CCO)CC(O)COc1cccc2ccccc12 (centres undefined)	i
Cc1ccc(S(=O)(=O)N2CCC(S(=O)(=O)Cc3ccco3)CC2)s1	i
Cc1cc(C)n(CC(=O)Nc2ccc(Cl)cc2)c(=O)c1S(=O)(=O)c1ccccc1	i
COc1ccccc1CNC(=O)C1CCN(c2cnc3ccccc3n2)CC1	i
Cc1ccc(-n2ccc(=O)c(-c3nc(-c4ccc(C(F)(F)F)cc4)no3)n2)cc1C	i
COc1ccc(C(=O)NCC2CCCO2)nn1 (centres undefined)	i
CC(C)C(NC(=O)C1C=CC(Cl)=CC1Cl)c1nc2ccccc2[nH]1 (centres undefined)	i
CNC(=O)CN1CCN(Cc2nc(-c3cccs3)cs2)CC1	i
CCOc1ccc(-c2cc3c(=O)n(CC(=O)Nc4ccc(OC)c(OC)c4)ncn3n2)cc1	i
CCOc1ccc2ccccc2c1C(=O)Nc1cc(OC)ncn1	i
COc1cccc(C(=O)COC(=O)c2cc3ccccc3oc2=O)c1	i
COCC(=O)Nc1ccc(Nc2cc(C)nc(NC3CCCCC3)n2)cc1	i
Cc1ccccc1NC(=O)Cn1c(C)nc2c(c1=O)CCCC2	i
O=C1OC2CC1N(C(=O)c1cc(Cl)ccc1Cl)C2 (centres undefined)	i
CC(C)c1ccc(OCC(=O)N(Cc2ccsc2)Cc2ccco2)cc1	i
Cc1c(C(=O)NCC(C)C)cnn1-c1ccc(-c2nc(C3CC3)no2)cn1	i
O=c1c2ccccc2n2c(-c3cccs3)nnc2n1CCc1ccccc1	i
CCNc1oc(-c2ccc(S(=O)(=O)N(C)C)cc2)nc1C#N	i
COc1ccc(-c2csc(CN3CCN(C(=O)CCc4ccccc4)CC3)n2)cc1	i
Cc1cc(C(O)CCNC(=O)NCc2cccc3ccccc23)c(C)o1 (centres undefined)	i
O=C(CSCc1ccccc1)NCC1(c2cccs2)CC1	i
O=C(Cc1nc(-c2ccncc2)n[nH]1)NCc1ccco1	i
CCN(CC)CCN1C(=O)C(=O)C(=C(O)c2ccncc2)C1c1ccc(Cl)cc1 (centres undefined)	i
Cc1noc(-c2ccc(NC(=O)C3(c4cccs4)CCCC3)cc2)n1	i
Cc1ccc(NC(=O)Cn2nc3ccc(SC4CCCCC4)nn3c2=O)c(Cl)c1	i
O=C(NCc1cccs1)NCc1nn(C2CCCC2)c2c1CCCC2	i
Cc1ccc(Cn2c(=O)c3c(nc(SCC(C)C)n3C)n(C)c2=O)cc1	i
COc1ccc(C(=O)Nc2oc3ccccc3c(=O)c2-c2ccccc2)cc1OC	i
COC(=O)N1CCC(CNC(=O)Nc2cccs2)CC1	i
COc1ccc(NC(=O)CSc2ncc(S(=O)(=O)c3ccc(C)cc3)c(N)n2)cc1OC	i
COc1cccc(NC(=O)N2CCN(Cc3nnnn3-c3cccc(F)c3)CC2)c1OC	i
CCCCCNC(=O)c1c(N)n(N)c2nc3ccccc3nc12	i
COc1ccc(C(=O)Cn2c(N3CCCCCC3)nc3c2c(=O)[nH]c(=O)n3C)cc1	i
Cc1cc2nn(CC(=O)Nc3cc(F)ccc3C)c(=O)n2c(-c2ccccc2)n1	i
O=C(CSc1nccn1-c1cccc(C(=O)Nc2ccccc2)c1)Nc1ccc(F)cc1	i
O=C(CSc1nc(-c2cccc([N+](=O)[O-])c2)cs1)NCc1ccccc1	i
Cc1ccc(NC(=O)c2cc(S(=O)(=O)N3CCOCC3)ccc2O)c(C)c1	i
O=C1CCc2cc(S(=O)(=O)N3CCCCCC3)cc3c2N1CCC3	i
COc1ccc(NC(=O)c2c(O)c3c(C)c(C(=O)N(C)C)sc3[nH]c2=O)c(OC)c1	i
Cc1ccc(S(=O)(=O)NCC(O)c2ccoc2)s1 (centres undefined)	i
COCCNC(=O)C(NC(=O)c1ccc(F)cc1)C12CC3CC(CC(C3)C1)C2 (centres undefined)	i
COc1cccc2cc(C(=O)N3CCN(CC(C)O)CC3)oc12 (centres undefined)	i
CCN1CCc2c(sc(NC(=O)c3ccc([N+](=O)[O-])s3)c2-c2nc3ccccc3s2)C1	i
Additional structures
SMILES	GIRK2 activ
NS(=O)(=O)c1ccc(N=Nc2c(O)[nH]c3ccc(C(=O)NCCc4cnc[nH]4)cc23)cc1	i
O=C(O)c1ccc(NCCc2c[nH]c3ccccc23)c([N+](=O)[O-])c1	i
Cc1cccc(N2CCN(C(=O)c3csc(Nc4ccc(OC(F)F)cc4)n3)CC2)c1	i
CCSc1ccccc1C(=O)Nc1cc(-c2cccs2)nn1-c1nc(C)c(C)c(=O)[nH]1	i
COc1ccccc1-n1nnc(C(=O)NCCC2=CCCCC2)c1-c1ccccn1	i
CCCNC(=O)c1ccc(Nc2nn3c(=O)c4ccccc4nc3s2)cc1	i
COc1cc2[nH]c3c(=O)n(CC(=O)NCc4ccc(F)c(Cl)c4)cnc3c2cc1OC	i
CCOC(=O)N1CCC(NC(=O)CN(C)c2nc3c(F)cccc3s2)CC1	i
CC(C)OCCCNS(=O)(=O)CCNC(=O)c1ccc2c(c1)OCO2	i
COc1ccc(NC(=O)Cn2c(N3CCCC3)nc(C)cc2=O)c(OC)c1	i
COc1ccc(C(=O)/C=C/c2cc(Br)cc3c2OCOC3)cc1	i
O=C(c1cc(-c2cccs2)[nH]n1)N1CCN(C(=O)C2CC2c2ccc(F)cc2)CC1 (centres undefined)	i
O=C1CCC(c2nc(-c3cccs3)no2)N1Cc1ccccc1 (centres undefined)	i
CN(C(=O)Cn1cc(S(=O)(=O)N2CCOCC2)ccc1=O)C1CCCCC1	i
CSc1cccc(NC(=O)Cn2nc3c(N4CCCC4)nccn3c2=O)c1	i
O=C(Cn1nc2c3sc(N4CCCC4)nc3ncn2c1=O)Nc1ccccc1Cl	i
O=C(O)C[C@H](O)C[C@H](O)/C=C/c1c(C2CC2)nc2ccccc2c1-c1ccc(F)cc1	i
Cc1noc(C)c1CC(=O)Nc1cccc2nsnc12	i
COc1cccc(NC(=O)Cn2c(=O)c(CNc3ccc(C)cc3)cc3cc4c(cc32)OCCO4)c1	i
NS(=O)(=O)c1ccc(-c2ccc3c(NC(=O)C4CC4)n[nH]c3c2)cc1	i
COc1ncc(NC(=O)Nc2ccc(F)cc2F)cn1	i
Cc1ccc(C)c(-c2nnc(NC(=O)C3CCN(S(=O)(=O)c4ccc(Cl)cc4)CC3)o2)c1	i
Cc1ccc(-c2noc(-c3ccc(CS(=O)(=O)Cc4ccccc4Cl)o3)n2)cc1	i
Cc1nnc(SCc2ccccn2)c2c1cnn2-c1ccccc1	i
COC(=O)c1ccc2c(=O)n(-c3ccc4c(c3)OCO4)c(N3CCN(c4ccccc4)CC3)nc2c1	i
CCOc1cc(C2NC(=O)NC(C)=C2C(=O)OC)ccc1OCc1ccccc1 (centres undefined)	i
CCOc1ccc(-c2csc(-n3nc(C)cc3NC(=O)c3cccc([N+](=O)[O-])c3C)n2)cc1	i
COc1ccc(CCC(=O)N2CC(c3nc(C4CC4)no3)C2)cc1	i
O=C(Nc1nn[nH]n1)c1cccc(S(=O)(=O)N2CCOCC2)c1	i
CC(C)NC(=O)CSc1nnc(N2CCN(C(=O)C(C)Oc3ccccc3)CC2)s1 (centres undefined)	i
Cc1ccc(S(=O)(=O)N2CCC(Oc3ccc(Cl)cn3)CC2)cc1	i
COc1ccc(C)cc1NC(=O)NCCNc1ccc(-n2cccc2)nn1	i

An excerpt; count on the stated rates, not on these rows.
